GLA inh pH 4.5 – inhibitors of human alpha-galactosidase A at pH 4.5; P06280; purified enzyme, 4-MU-alpha-Gal fluorescence, pH 4.5; activity change, negative = inhibition, % at 105 µM; 230,000 tested, under 10 active; inconclusive = small, poorly fitted or top-dose-only inhibition, or a rising curve; inactive = flat fitted curve, though single readings scatter; no compound was filed as active;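 also: 0% = full activity with enzyme and -100% = basal without enzyme; dose as in the result columns while the protocol names 77 µM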
miR-21 FLuc – miR-21 reporter, rising signal. HeLa miR-21 FLuc reporter, luciferase, 48 h. Potency, µM (doses to about 38.3 µM), inactives show top-dose reporter change, positive = more light. 340,000 tested, under 10 active. AID 2288; active = well fitted rising curve with a large enough effect; inconclusive = small, poorly fitted or top-dose-only effect; inactive = no such curve, though single readings can be large or run the other way;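 also: % of control where 0% means no effect; miR-21 action dims this reporter so a rising signal means less miR-21 action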
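Luminescence from a firefly luciferase reporter carrying a miR-21 binding site downstream, stably expressed under a CMV promoter in HeLa cells that make miR-21 endogenously, reports miRNA modulation after 48 h compound exposure up to approximately 40uM final.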
Rango-impB inh – Rango-importin beta binding inhibition | Q14974 | Rango CFP/YFP FRET sensor + importin beta, 45 min | Potency, µM (highest dose often 92.2 µM), for the others: top-dose inhibition of complex formation | 340,000 compounds, 0.031% hits | AID 540263; active = rising FRET ratio curve, often small or poorly fitted; inconclusive = mostly compound fluorescence or quenching in the first reads; inactive = flat curves in all reads;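 also: potency is read from the fitted curve at half-maximal effect; 0% = DMSO wells and 100% = buffer wells lacking importin beta; nearly all actives have a fitted effect of over 15% in size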
Target sequence (Q14974 whole entry, looked up): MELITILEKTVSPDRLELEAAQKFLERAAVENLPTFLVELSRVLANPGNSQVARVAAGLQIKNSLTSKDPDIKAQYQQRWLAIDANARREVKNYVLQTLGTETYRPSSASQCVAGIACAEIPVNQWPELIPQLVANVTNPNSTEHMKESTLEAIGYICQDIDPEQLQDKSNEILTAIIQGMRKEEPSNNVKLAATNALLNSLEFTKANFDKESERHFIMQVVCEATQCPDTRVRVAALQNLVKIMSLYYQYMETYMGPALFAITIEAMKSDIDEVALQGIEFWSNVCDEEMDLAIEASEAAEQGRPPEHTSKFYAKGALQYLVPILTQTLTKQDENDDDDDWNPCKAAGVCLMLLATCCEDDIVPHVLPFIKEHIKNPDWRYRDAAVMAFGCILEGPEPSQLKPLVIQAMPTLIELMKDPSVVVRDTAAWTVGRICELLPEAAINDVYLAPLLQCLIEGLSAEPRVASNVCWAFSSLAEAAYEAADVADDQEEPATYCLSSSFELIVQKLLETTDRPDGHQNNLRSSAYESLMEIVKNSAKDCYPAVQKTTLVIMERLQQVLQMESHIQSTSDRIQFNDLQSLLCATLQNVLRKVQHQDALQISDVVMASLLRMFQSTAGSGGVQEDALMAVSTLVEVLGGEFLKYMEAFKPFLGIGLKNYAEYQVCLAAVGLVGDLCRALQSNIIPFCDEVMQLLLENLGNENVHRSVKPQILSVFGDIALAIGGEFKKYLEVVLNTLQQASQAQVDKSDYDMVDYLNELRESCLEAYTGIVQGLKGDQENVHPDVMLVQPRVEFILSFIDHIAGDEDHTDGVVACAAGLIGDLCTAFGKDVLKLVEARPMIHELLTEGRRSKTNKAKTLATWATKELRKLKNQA
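Inhibition scored from the CFP 486 nm/YFP 530 nm FRET ratio 45 min after adding 0.125 microM importin beta to 50 nM Rango biosensor preincubated 5 min with compound (room temperature, PBS with DTT, Tween-20, BSA). No-importin wells as positive control.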
Rango dissoc inh – prevents RanGTP from dissociating the Rango-importin beta complex; O95149+P62826; Biochemical FRET Rango-importin beta, RanGTP-induced dissociation; Potency, µM (top dose mostly 46.1 µM), without a hit: top-dose activity change, negative = inhibition; 340,000 compounds, 0.071% hits; AID 540253; active means falling FRET ratio curve, often poorly fitted, with flat reads before Ran was added; inconclusive means other falling curves, or compound fluorescence or quenching; inactive means flat or rising ratio curve;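 also: potency is read from the fitted curve at half-maximal effect; % of control where 0% means no effect; nearly all actives have a fitted effect of over 45% in size; -100% = wells without RanGTP and RCC1; the record marks most hits as doubtful in a second field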
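Recombinant Rango FRET biosensor (EYFP–snurportin 1 IBB–cerulean CFP10) at 0.1 uM premixed with 0.25 uM importin beta in PBS, 1 mM DTT, 0.02% Tween-20, 0.1% BSA. Compound added 5 min; RanGTP-RCC1 (0.6 uM Ran, 2 mM GTP, 0.2 uM RCC1) then triggers release, read at 45 min.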
* hit, by the source's call; ? = inconclusive; nt = no result given; & = joins results of further samples; [ ] = another dose, or the depositor's remark. Only part of the results is shown. The share of hits here may be higher or lower than overall.

SMILES	miR-21 FLuc	Rango dissoc inh	Rango-impB inh	GLA inh pH 4.5
O=C(N/N=C/c1c[nH]c2ccccc12)c1ccccc1O	-36%	0%	2.7%	nt
Cc1cccc(-c2n[nH]c(S(C)(=O)=O)c2C#N)c1	-2%	11%	-0.4%	-6
O=C(Nc1ccccc1)c1cccc(S(=O)(=O)Oc2ccc([N+](=O)[O-])cc2)c1	-2%	-2%	-3.1%	-18
CC(C)c1ccc(OCC(=O)NNC(=S)NC(=O)C2CC2)cc1	10%	-1%	-2.8%	nt
CC(C)(C)NC(=O)COC(=O)Cc1ccc(Cl)cc1	4%	3%	0.7%	0
COc1cc(NC(=O)c2ccc(COCC(F)(F)F)cc2)cc(OC)c1OC	-3%	1%	0.4%	2
C=CCN(C(=O)C1CC(=O)N(C2CCCC2)C1)c1nc(-c2ccc(S(C)(=O)=O)cc2)cs1 (stereo not given)	nt	4%	?	nt
CNC(=O)c1ccsc1NC(=O)c1ccccc1	-22%	13%	0.6%	-19
COc1ccc(C)cc1-n1nnnc1SCC(=O)N1CCC(C(=O)Nc2nccs2)CC1	9%	12%	-1.3%	2
CCOC(=O)N1CCC(NC(=O)c2cc(S(=O)(=O)N3CCCC3)cn2C)CC1	0%	18%	3.0%	-16
Cc1ccc(CC(CC(=O)O)C(=O)Nc2ccc(Cl)cc2)cc1 (stereo not given)	-4%	7%	1.8%	nt
COc1ccc(C2=CC(=O)CC(c3ccc(F)cc3)C2)cc1 (stereo not given)	nt	-4%	1.4%	nt
Cc1ccc(C)c(NC(=S)NNC(=S)Nc2ccc(C(C)C)cc2)c1	8%	17%	0.7%	4
O=C(CN1CCCCC1)NCCNC(=O)CN1CCCCC1	-1%	4%	-0.6%	4
Cc1nc2ccccc2c(N)c1C(=O)/C=C/c1ccccc1	?	3%	?	nt
CCCC1O[C@@H]2C[C@H]3[C@@H]4CCC5=CC(=O)C=C[C@]5(C)[C@H]4[C@@H](O)C[C@]3(C)[C@]2(C(=O)CO)O1 (stereo not given in full)	-23%	-10%	-1.3%	nt
Cc1ccccc1C(=O)NNC(=S)NC(=O)c1cccs1	2%	-2%	-1.9%	nt
Cc1cc(O)c2c(c1)C(O)(C1OC(CO)C(O)C(O)C1O)c1cccc(O)c1C2=O (stereo not given)	-6%	-6%	0.1%	2
COc1ccc(CCNC(=O)C2CCN(S(=O)(=O)N3CCC4(CC3)OCCO4)CC2)cc1OC	-4%	5%	0.9%	-20
Cc1ccc2nc3c(nc2c1C)C(O)=C3O	-5%	-9%	-1.1%	-2
Cc1ccccc1C(=O)NC(=S)NC1CCSC1=O (stereo not given)	-3%	5%	-2.0%	2
S=C1NCN(Cc2ccco2)CN1CCc1ccccc1	3%	0%	0.6%	-7
CCOC(=O)C1CCN(C(=O)C2CCCN(S(=O)(=O)c3ccc(OCC)c(Cl)c3)C2)CC1 (stereo not given)	nt	-14%	-1.1%	nt
O=S(=O)(NCc1nc(-c2ccccc2)no1)c1ccc(F)cc1	0%	-12%	0.5%	nt
COc1ccc(CN2C(=O)c3ccccc3C2C(=O)NCc2cccnc2)c(OC)c1 (stereo not given)	-3%	-6%	-3.7%	1
NC(=O)NC(=O)C[n+]1cccc(/C=N/O)c1	-1%	5%	5.9%	1
Cc1cccc(-c2noc(CNC(=O)Nc3ccc(F)cc3)n2)c1	-3%	2%	0.2%	-15
CCN(CC)c1ccc(C(=O)n2cnc3ccccc32)cc1	-9%	-12%	-1.2%	-6
COc1ccc(CNCC(C)NCc2ccc(OC)c(OC)c2)cc1OC (stereo not given)	-1%	0%	-0.2%	nt
Cc1cc(Nc2ccccc2)cc(=O)n1C	nt	-11%	0.0%	nt
Cc1ccc(NC(=O)CN(CCc2ccccc2)S(C)(=O)=O)cc1	5%	8%	-0.6%	nt
Oc1cccc(/C=N/Nc2ccc(Cl)nn2)c1	-53%	-6%	-1.3%	nt
CCCn1c(N)c(N(CCOC)C(=O)c2cc(-c3ccco3)nc3ccccc23)c(=O)[nH]c1=O	-5%	4%	-1.0%	nt
COc1ccc(C(OC(=O)c2ccco2)C(=O)NCc2ccco2)cc1 (stereo not given)	-3%	-4%	-2.9%	-8
COc1cc(C)ccc1OCCCCN1CC(C)OC(C)C1 (stereo not given)	-6%	1%	2.9%	4
CCN(C1CCCCC1)S(=O)(=O)c1c(C)n(C)c(=O)n(C)c1=O	nt	6%	-1.5%	nt
CC1CCC(NC(=O)C(NS(=O)(=O)c2cccc3nsnc23)C(C)C)CC1 (stereo not given)	2%	4%	1.3%	nt
NC(=O)CC(NC(=O)c1ccccc1)c1ccc(N2CCC(Br)CC2)c([N+](=O)[O-])c1 (stereo not given)	0%	-10%	-3.9%	-1
N#Cc1cnc(NN)nc1	-15%	-6%	1.2%	-5
CC(C)n1c(NCc2ccc(Cl)cc2)nc2ccccc21	-4%	1%	-1.1%	-9
Cn1nnnc1SCC(=O)N(C1CCCCC1)C1CCS(=O)(=O)C1 (stereo not given)	0%	9%	6.8%	0
COc1ccc(NC(=O)CCNS(=O)(=O)c2ccc(NC(C)=O)cc2)cc1Cl	-7%	-16%	-1.9%	nt
CC(C)COc1ccc(C(=O)N2C(=O)c3ccc(N)cc3C2=O)cc1	1%	22%	-4.9%	6
COc1ccccc1CNC(=O)COC(=O)c1ccc(C)s1	nt	-12%	-1.0%	nt
O=C(O)/C=C/c1cccc(NS(=O)(=O)c2ccccc2)c1	-6%	-7%	0.4%	-19
COc1ccc(C(=O)OCC(=O)NC2CC2)cc1F	nt	11%	5.7%	nt
CCOC(=O)C1C(=O)NC(c2ccccc2)=NC1c1cccc(Br)c1 (stereo not given)	-3%	17%	9.0%	-1
Cc1cccc(Oc2ccc(Cl)cc2N)c1	-29%	13%	1.3%	-3
COc1ccc([N+](=O)[O-])cc1C(=O)NC1CCN(Cc2ccccc2)CC1	nt	-22%	-6.3%	nt
Fc1ccccc1C(c1nnnn1C1CCCC1)N1CCN(Cc2ccccc2)CC1 (stereo not given)	-3%	4%	4.7%	-7

The list continues:
SMILES	miR-21 FLuc	Rango dissoc inh	Rango-impB inh	GLA inh pH 4.5
CCCOC(=O)c1cccc(NC(=O)C(C)(C)C)c1	-27%	2%	-0.1%	-16
Cc1cccc(CN2C(=O)c3ccccc3Sc3ccc(C(=O)O)cc32)c1	-2%	-3%	-0.1%	-10
N#CC(CC(=O)c1ccc(F)cc1)c1ccc2c(c1)OCO2 (stereo not given)	-10%	3%	3.8%	nt
CCCCCCn1cc(C(=O)OCC)c(=O)c2cc(F)c(F)cc21	4%	-6%	?	-2
N#C/C(=C\c1ccc(C(=O)O)cc1)c1nc2sc3c(c2c(=O)[nH]1)CCCC3	-5%	?	?	-5
Cc1ccc(S(=O)(=O)N2CCc3ccccc3C2CC(=O)O)cc1 (stereo not given)	-2%	2%	0.6%	-1
CCCC(=O)N1CC(=O)Nc2ccc(Br)cc2C1c1ccc(F)cc1 (stereo not given)	-10%	-3%	-1.4%	nt
N/C(=N\OC(=O)c1ccc(Cl)c(Cl)c1)c1cccc(CSc2ccccn2)c1	-5%	4%	0.7%	-2
CC(C)NC(=O)N(C)C[C@H]1Oc2ccc(NS(=O)(=O)c3ccc(F)cc3)cc2C(=O)N([C@H](C)CO)C[C@@H]1C	nt	-3%	0.9%	nt
COc1cc(/C=C/C(=O)N2CCN(CC(O)COc3ccccc3)CC2)cc(OC)c1OC (stereo not given)	4%	-2%	2.8%	3
CN1CCN(c2ccc(Cl)cc2NC(=O)c2nn(-c3ccccc3)c(=O)c3ccccc23)CC1	-10%	10%	-3.2%	0
CC1(C)CC(=O)C(C=NCC2CCN(C(=O)Cc3ccccc3)CC2)=C(O)C1	-2%	6%	-0.5%	4
COc1ccc(CC(=O)Nc2cc(=O)n(C)c(=O)n2C)cc1OC	-11%	-4%	2.1%	0[21.1 µM]
CC1CCCN(S(=O)(=O)c2ccc(C(=O)Nc3nnc(C4CC4)o3)cc2)C1 (stereo not given)	28%	-7%	-0.5%	nt
Cn1c(=O)c2cc(S(=O)(=O)NC(Cc3ccccc3)C(=O)NCC3CCCO3)ccc2n(C)c1=O (stereo not given)	-3%	-3%	-1.6%	-4
COCCn1c(NC(=S)NC(=O)C23CC4CC(CC(C4)C2)C3)cc(=O)[nH]c1=O	-4%	-3%	-4.6%	-4
COc1ccc(-c2nc(C#N)c(NCc3ccccc3Cl)o2)cc1	-23%	-12%	1.4%	-7
O=C(CSc1nnc(-c2ccco2)o1)NC1CCCCC1	3%	0%	-0.4%	-1
CN(C)CCN(Cc1cccs1)S(=O)(=O)c1csc(C(N)=O)c1	-3%	19%	-2.7%	nt
COCCN1C(=O)c2ccccc2C(C(=O)N2CCN(c3ccccc3)CC2)C1c1ccc(F)cc1 (stereo not given)	6%	-5%	2.5%	2
CCN(CC)c1ccc(/C=N/N2CCN(Cc3ccccc3Cl)CC2)c(O)c1	0%	-5%	-1.9%	-5
Cc1cccc2sc(NC(=O)CCNC(=O)c3ccco3)nc12	nt	0%	0.7%	nt
CCOc1ccc(N(CC(=O)Nc2ccc(F)c(F)c2)S(=O)(=O)c2c(C)noc2C)cc1	-6%	13%	-4.5%	2
O=C(c1cccc(S(=O)(=O)Nc2ccc(Br)cc2)c1)N1CCCC1	nt	-2%	-0.5%	nt
Cc1onc(-c2ccccc2)c1C(=O)Nc1cccc(S(=O)(=O)NC2=NCCC2)c1	nt	0%	-0.8%	nt
CC1(C)CC2CC(C)(CN2c2ncnc3ccc(Br)cc23)C1 (stereo not given)	-4%	19%	0.3%	13
Cc1ccccc1C(O)c1ccccn1 (stereo not given)	-2%	1%	-3.9%	-6
CSc1ccccc1OCc1cc(C(=O)NCc2csc(C(C)C)n2)no1	1%	0%	-1.1%	nt
O=C(COC(=O)c1cccnc1Cl)c1ccc(F)cc1	-1%	10%	1.2%	-2
COc1ccc(CCNC(=O)CSc2nnnn2Cc2ccc3c(c2)OCO3)cc1OC	-6%	-14%	-0.9%	1

Whole records, looked up by structure. Screens in order: miR-21 FLuc | Rango dissoc inh | Rango-impB inh | GLA inh pH 4.5
Listed for COc1cc(/C=C/C(=O)N2CCN(CC(O)COc3ccccc3)CC2)cc(OC)c1OC (stereo not given) → 4% | -2% | 2.8% | 3
Listed for CC(C)(C)NC(=O)COC(=O)Cc1ccc(Cl)cc1 → 4% | 3% | 0.7% | 0

(cont.)
SMILES	miR-21 FLuc	Rango dissoc inh	Rango-impB inh	GLA inh pH 4.5
Cc1ccc(C(=O)NNc2cc(=O)n(C)c(=O)n2C)cc1C	-5%	?	?	4
C=Cc1ccc(C2=CC(=O)C[C@H](c3ccc(OC)cc3)C2)cc1	nt	0%	-0.3%	nt
CCCn1c(SCC(=O)NCc2ccco2)nnc1-c1ccncc1	0%	9%	2.9%	14
O=S1(=O)CCO[C@H]2Cc3ccccc3[C@H]2N1Cc1ccc(Cl)cc1	0%	18%	4.0%	nt
CC(NCc1ccncc1)C12CC3CC(CC(C3)C1)C2 (stereo not given)	-6%	0%	5.2%	9
COC(CNC(=O)c1ccc2c(=O)n(Cc3ccc4c(c3)OCO4)c(=S)[nH]c2c1)OC	3%	9%	2.8%	nt
O=C(O)CCC(=O)Nc1sc2c(c1C(=O)Nc1ccccc1)CCCCC2	-23%&-67%	6%	?	-6
O=C(COC(=O)CC1CCCC1)Nc1ccc(Cl)cn1	nt	-7%	-0.1%	nt
Cc1ccc(CCNc2ccccc2C)cn1	-15%	2%	-0.7%	0
COC(=O)c1ccc(NC(=O)CSC2=Nc3ccccc3C3CC=NN23)cc1 (stereo not given)	-5%	-9%	1.3%	-7
Cc1ccc(NC(=O)CN(C)C(=O)COC(=O)C2=COCCO2)cc1	nt	4%	3.0%	nt
CCOC(=O)CSc1nc(N)cc(=O)[nH]1	-2%	-4%	-0.3%	4
CCOC(=O)c1[nH]c(C(=O)O)c(OC(=O)CC)c1C	0%	-5%	-0.3%	-1

From PubChem
